KCNQ2 inh = KCNQ2 potassium channel inhibitors, primary screen, cell-based, CHO-K1, FluxOR thallium flux, B-score (AID 2156) | O88943 | 20 min; stronger effect = lower value; only compounds with negative scores are shown here; some inactives read as strong as hits | B-score at 10 µM | actives 1.1% (n = 310,000);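 active = fluorescence ratio B-score at most minus 3 library SDs, with starting brightness B-score within 2 library SDs, cut at about -5.5 in these data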
Target sequence (O88943 whole entry, looked up): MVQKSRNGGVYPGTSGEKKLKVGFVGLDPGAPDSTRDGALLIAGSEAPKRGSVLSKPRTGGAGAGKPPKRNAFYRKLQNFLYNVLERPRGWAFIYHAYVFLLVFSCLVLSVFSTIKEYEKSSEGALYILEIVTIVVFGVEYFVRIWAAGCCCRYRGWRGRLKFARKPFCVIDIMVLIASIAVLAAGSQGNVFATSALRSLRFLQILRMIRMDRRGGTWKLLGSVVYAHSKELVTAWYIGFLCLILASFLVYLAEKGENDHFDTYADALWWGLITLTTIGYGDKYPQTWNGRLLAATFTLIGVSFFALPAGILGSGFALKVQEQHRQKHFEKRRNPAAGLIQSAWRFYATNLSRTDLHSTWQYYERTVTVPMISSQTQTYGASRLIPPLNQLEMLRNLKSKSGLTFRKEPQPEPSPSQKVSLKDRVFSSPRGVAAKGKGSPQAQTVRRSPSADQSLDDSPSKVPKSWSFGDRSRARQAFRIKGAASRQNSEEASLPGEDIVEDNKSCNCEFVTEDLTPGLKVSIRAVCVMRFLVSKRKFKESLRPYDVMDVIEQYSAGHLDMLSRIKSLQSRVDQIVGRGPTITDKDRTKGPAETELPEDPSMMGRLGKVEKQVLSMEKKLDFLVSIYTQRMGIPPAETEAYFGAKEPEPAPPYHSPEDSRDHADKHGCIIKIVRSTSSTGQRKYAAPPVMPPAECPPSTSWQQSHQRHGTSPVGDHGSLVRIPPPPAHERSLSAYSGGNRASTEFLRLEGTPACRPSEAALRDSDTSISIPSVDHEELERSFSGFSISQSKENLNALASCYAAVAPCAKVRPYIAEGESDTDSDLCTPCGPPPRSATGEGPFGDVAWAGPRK
KCNQ2 inh baseline = second read-out of KCNQ2 inh, no call of its own (marks repeat the call); B-score; measured here: initial fluorescence intensity artifact check;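 brightness before thallium and not channel activity; 0 = typical well and far values either way flag optical interference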
* hit, by the source's call; i = inactive. Not all compounds are listed; rates above refer to the full screens.

SMILES	KCNQ2 inh	KCNQ2 inh baseline
C[C@]12CC[C@@H]3c4ccc(O)c(O)c4CC[C@H]3[C@@H]1CC[C@@H]2O	i	0.23
O=S(=O)(c1ccc(F)cc1)N1CCCC1c1cccnc1 (configuration not stated)	i	-0.53
CCN(CC)S(=O)(=O)c1cccc(N=Nc2c(O)n(CC)c(=S)n(CC)c2=O)c1	i	-0.85
COc1ccccc1CCNC1CCC(C(C)(C)C)CC1 (configuration not stated)	i	0.66
c1ccc(C2NCc3ccccc3-n3cccc32)cc1 (configuration not stated)	i	1.4
Cc1cc(C=O)c(C)n1C(C)C	i	-0.52
C=CCn1c(O)c(C(CC)=NC(C)c2ccccc2)c(=O)[nH]c1=O (configuration not stated)	i	0.94
O=Cc1cn(Cc2ccc(F)cc2Cl)c2ccccc12	i	-0.01
CC1CC(C)CN(CC(=O)c2ccc(OC(F)F)cc2)C1 (configuration not stated)	i	0.42
Cc1ccc(-c2nn(Cc3ccccc3)cc2C=O)cc1	i	0.33
COCCCn1c(N)c(C(=O)Nc2sc3c(c2C(=O)OC)CCCC3)c2nc3ccccc3nc21	i	0.95
COc1ccccc1NC1(C#N)CCCCC1	i	-2.1
O=P1(Oc2ccccc2)CC=C[C@H](COCc2ccccc2)O1 (some centres not stated)	i	0.04
O=C(NCC(c1cccnc1)N1CCN(c2ccc(F)cc2)CC1)Oc1ccccc1 (configuration not stated)	i	0.47
FCCN(CCF)c1cccc(Cl)c1	i	-0.68
O=C(O)C1C2CC3CC(C2)CC1(n1ncc(N2CCC4(CC2)OCCO4)c(Cl)c1=O)C3 (configuration not stated)	i	-1.4
COc1c(C)cc(C(=O)C2CCCN(Cc3cccc(C)n3)C2)cc1C (configuration not stated)	i	0.02
COc1ccc(CCN(C)Cc2ccncc2)cc1OC	i	0.07
COc1ccc(-n2c(-c3ccccc3[N+](=O)[O-])nc3ccccc3c2=O)cc1	i	-0.57
CCN(CC)C(=O)Cn1cc(C=C2C(=O)N(C)C(=O)N(C)C2=O)c2ccccc21	i	-0.2
C#C[C@@]1(O)CCC2C3CCC4=C/C(=N/OCC(=O)NC(CCC(N)=O)C(=O)O)CC[C@]4(C)C3CC[C@@]21C (some centres not stated)	i	-1.8
COCCNP(=O)(c1ccccc1)c1nc2ccccc2s1 (configuration not stated)	i	1.1
CCOc1cc(/C=C2\C(=O)NC(=O)N(C)C2=O)cc([N+](=O)[O-])c1O	i	-0.46
Cc1ccsc1C(=O)C1CCCN(Cc2ccc(-n3cccn3)cc2)C1 (configuration not stated)	i	-0.85
O=C(CN1CCCCC1)c1ccc(OC(F)F)cc1	i	2.3
Cc1ccc(-c2nc3ccccc3c(=O)n2-n2cccc2)cc1	i	2
O=C1C2CCCC1C(N1CCCCC1)CC2 (configuration not stated)	i	0.65
COCCN1C(=O)/C(=C/c2c(OC)cc(OC)cc2OC)C(=O)N(c2ccccc2)C1=O	i	-0.46
CN1CCC(O)(c2ccccc2)C(C(=O)c2ccccc2)C1 (configuration not stated)	i	-0.85
CC1(C)C[C@H]2C=C(C=O)[C@]3(C=O)C[C@]3(C)[C@H]2C1	-6*	0.13*
COc1cccc2cc(-c3cc(=O)oc4ccc(OC(=O)N(C)C)cc34)oc12	i	-0.06
O=P1(NCc2ccco2)COc2ccccc2OC1	i	2.9
CN(C)C(=O)Oc1ccc2nnc3ccnn3c2c1	i	2.5
O=C(N/N=C/c1c(O)n(C2CC2)c(=S)[nH]c1=O)c1ccccc1	i	-0.02
CCc1ccc(-n2c(O)c(/C=N/N3CCCCC3c3cccnc3)c(=O)[nH]c2=O)cc1 (configuration not stated)	i	0.38
NC1=NC(c2cccnc2)n2c(nc3ccccc32)N1 (configuration not stated)	i	0.01

Reformatted: 14 of the compounds above.
Value order: KCNQ2 inh | KCNQ2 inh baseline
- C[C@]12CC[C@@H]3c4ccc(O)c(O)c4CC[C@H]3[C@@H]1CC[C@@H]2O
 : i | 0.23
- O=S(=O)(c1ccc(F)cc1)N1CCCC1c1cccnc1 (configuration not stated)
 : i | -0.53
- CCN(CC)S(=O)(=O)c1cccc(N=Nc2c(O)n(CC)c(=S)n(CC)c2=O)c1
 : i | -0.85
- COc1ccccc1CCNC1CCC(C(C)(C)C)CC1 (configuration not stated)
 : i | 0.66
- c1ccc(C2NCc3ccccc3-n3cccc32)cc1 (configuration not stated)
 : i | 1.4
- Cc1cc(C=O)c(C)n1C(C)C
 : i | -0.52
- C=CCn1c(O)c(C(CC)=NC(C)c2ccccc2)c(=O)[nH]c1=O (configuration not stated)
 : i | 0.94
- O=Cc1cn(Cc2ccc(F)cc2Cl)c2ccccc12
 : i | -0.01
- CC1CC(C)CN(CC(=O)c2ccc(OC(F)F)cc2)C1 (configuration not stated)
 : i | 0.42
- Cc1ccc(-c2nn(Cc3ccccc3)cc2C=O)cc1
 : i | 0.33
- COCCCn1c(N)c(C(=O)Nc2sc3c(c2C(=O)OC)CCCC3)c2nc3ccccc3nc21
 : i | 0.95
- COc1ccccc1NC1(C#N)CCCCC1
 : i | -2.1
- O=P1(Oc2ccccc2)CC=C[C@H](COCc2ccccc2)O1 (some centres not stated)
 : i | 0.04
- O=C(NCC(c1cccnc1)N1CCN(c2ccc(F)cc2)CC1)Oc1ccccc1 (configuration not stated)
 : i | 0.47

The list continues.
SMILES	KCNQ2 inh	KCNQ2 inh baseline
COc1cc2c(cc1/C=C/[N+](=O)[O-])OCO2	-7.8*	-1.1*
COP(=O)(OC)C(NC(C)=O)C(Cl)(Cl)Cl (configuration not stated)	i	-0.33
COc1cccc2c1O[C@H]1C(=O)CC[C@H]3CN(C)CCC231 (some centres not stated)	i	0.01
COC(=O)C1=Nc2ccccc2/C1=C\c1c(O)n(-c2cc(OC)ccc2OC)c(=O)[nH]c1=O	i	-0.49
COc1ccccc1N1CCN(Cc2ccc(Br)s2)CC1	i	-0.72
CCN1CCN(C(=O)COc2ccc(S(=O)(=O)N(C)Cc3ccccc3)cc2)CC1	i	0.56
COc1ccc(OCC(=O)N2CCN(C(C)C)CC2)cc1	i	-0.32
Cc1cc(OCC(=O)NC2CCS(=O)(=O)C2)c2c3c(c(=O)oc2c1)CCC3 (configuration not stated)	i	0.07
CC[n+]1c(/C=C/N(C)c2ccccc2)sc2ccc(Cl)cc21	i	0.23
CC1(C)CC(=O)C2=C(C1)NC(=O)C21C(C(=O)OC(C)(C)C)=C(N)Oc2ccc(Br)cc21 (configuration not stated)	i	0.16
CN(C)P(=O)(NC(=O)c1cccn1C)N(C)C	i	-1.3
COC(=O)C(O)(c1ccc(NC(=S)NC(=O)c2ccccc2)cc1)C(F)(F)F (configuration not stated)	i	2.6
CC(C)Cc1nnc(NC(=O)CCC(=O)N2CCC3(CC2)OCCO3)s1	i	0.06
CCc1cc(=O)oc2cc(OCC(=O)N3C[C@H]4C[C@@H](C3)c3cccc(=O)n3C4)ccc12	i	2.6
Cc1ccc(OCC(=O)N2CCN(Cc3cccnc3)CC2)cc1	i	0.63
NC(N)=N/N=C/c1cn(-c2ccccc2)nc1-c1cccs1	-11*	-0.86*
C=CCN1C(=O)NC(=O)/C(=C/c2c(CCN(C)C(=O)c3ccccc3)cc3c(c2OC)OCO3)C1=O	i	1.9
Nc1cc2nc3ccccc3nc2cc1N	i	28
O=C1NC(=O)N(c2ccccc2)C(=O)/C1=C/c1coc2ccc(O)cc2c1=O	-7.1*	-0.65*
COc1ccc(C(=O)N/N=C/C23CC[C@@H](O)CC2(O)CC[C@@H]2[C@@H]3CCC3(C)C(C4=CC(=O)OC4)CCC23O)cc1 (some centres not stated)	i	0.11
NP(=O)(OCCCc1ccccc1)Oc1ccc(Cl)cc1 (configuration not stated)	i	0.14
COc1ccc(N2C(=O)NC(=O)/C(=C\c3ccccc3[N+](=O)[O-])C2=O)cc1	i	-0.47
c1ccc(Cn2ccnc2)cc1	i	-0.08
COC(=O)C1=C(c2cc3ccccc3s2)C[C@@H]2CC[C@H]1N2C(=O)NC1CCCCC1	i	-2.4
COC(=O)c1ccc(C(C(=O)NC2CCCCC2)N(CCN2CCOCC2)C(=O)Cc2cccs2)cc1 (configuration not stated)	i	-1.4
CC1CCCCN1CC(O)c1c[nH]c2ccccc12 (configuration not stated)	i	1.3
COc1ccc(-c2[nH]ncc2CNC(C)Cc2ccsc2)c(F)c1 (configuration not stated)	i	-0.31
O=[N+]([O-])c1cccc(CN2CC=C(c3ccc(F)cc3)CC2)c1	i	-0.72
COc1ccc2c3c([nH]c2c1)C(C)NCC3 (configuration not stated)	i	-0.86
CSC1=NP(=S)(SC)N(C)c2nc3n(c21)CCC3 (configuration not stated)	i	-0.42
CC(C)[C@H]1C(=O)O[C@@H]2CCN3CC=C(COC(=O)[C@](C)(O)[C@]1(C)O)[C@H]23	i	0.19
CCOc1ccc2c(c1)c(C(C)=O)c(C)n2Cc1ccco1	i	1.6
Cc1ccccc1NC(=O)c1cc(-c2ccccc2)n(CCCN2CCOCC2)c1C	i	0.17
N#CC(CCN1CCOCC1)(c1ccccc1)c1ccccc1	i	1.6
Cc1ccc(C(=O)Nc2ccc(-n3ccnc3P(=O)(O)c3ccccc3)cc2)cc1	i	-0.75
CCOC(=O)c1c(-n2c(C)cc(/C=C3\C(=O)NC(=O)N(C)C3=O)c2C)sc2c1CCCC2	i	-0.93

Following part:
smiles	KCNQ2 inh	KCNQ2 inh baseline
COC(=O)C1C2c3ccccc3OC1(C)N=c1s/c(=C/c3cnn(C)c3C)c(=O)n12 (configuration not stated)	i	-0.03
C[n+]1c(-c2ccccc2)c2cc(N)ccc2c2ccc(N)cc21	i	1.6
CC(C)(CN)CC(=O)O	i	0.39
O=C(COc1ccc(Cl)cc1)N1CCN(Cc2ccc([N+](=O)[O-])cc2)CC1	i	-1.5
CCCCn1c(O)c(C=NCCCn2ccnc2)c(=O)[nH]c1=O	i	0.88
CCCCn1c(O)c(C(CC)=NCc2cccnc2)c(=O)[nH]c1=O	i	-1.3
COc1c(C)cc(C(=O)C2CCCN(Cc3ccccn3)C2)cc1C (configuration not stated)	i	0.87
FC(F)(F)c1ccc2c(c1)nnn2C1CCN(Cc2nnnn2Cc2ccccc2)CC1	i	4.6
CCOC(=O)c1c(C)[nH]c(C)c1C(=O)C(Cc1ccccc1)N(C)C (configuration not stated)	i	-0.07
COc1cc(CN2CCNCC2)cc(OC)c1OC	i	1.1
Cc1occc1C(=O)N1CCC2(CC1)OCCO2	i	0.25
CCNCCNc1ccc([N+](=O)[O-])c2cccnc12	i	0.33
CN(C)C(=O)Oc1ccc(OCc2cccc[n+]2C)cc1	i	-0.24
CSc1ccc(C(=O)C2CCCN(CCCn3cccn3)C2)cc1 (configuration not stated)	i	1.4
CCCCC(=O)N/N=C/c1c(O)n(CC)c(=S)[nH]c1=O	i	1.9
CCOC(=O)c1c(/N=C/c2c(O)n(-c3ccccc3F)c(=S)[nH]c2=O)sc2c1CCCC2	i	0.12
Cc1ccc2c(c1)[C@@H]1CN(C)CC[C@@H]1N2C(=O)Nc1cccc(C(F)(F)F)c1	i	0.68
O=C(COC(=O)Cc1ccccc1)Nc1ccc(SC(F)F)cc1	i	0.8
Cc1cccc(CN2CCN(Cc3ccc(Cl)cc3)CC2)c1	i	-0.95
O=C(NC(=O)N1CCC2(CC1)OCCO2)c1ccc(Cl)cc1	i	1.2
O=C(Cc1ccccc1)OCCNC(=O)c1cccnc1	i	-0.78
CN(C)CCN=Cc1c(O)n(Cc2ccc3c(c2)OCO3)c(=S)[nH]c1=O	i	-0.94
CC1=CC(=O)NP(=O)(Oc2ccc3ccccc3c2)N1 (configuration not stated)	i	-2.4
CC1CN=C(Nc2ccccc2)S1 (configuration not stated)	i	0.68
O=c1c2ccccc2nc(/C=C/c2ccccc2F)n1-c1ccccc1O	i	-0.62
CCCC[N+]12C3C[C@H](C4[C@H](O)[C@]5(C[C@@H]41)c1ccccc1N(C)[C@@H]35)[C@H](CC)[C@H]2O (some centres not stated)	i	0.16
Cc1cccc(N2C(=O)/C(=C/c3ccc(CN(CCC#N)S(C)(=O)=O)o3)C(=O)NC2=S)c1	i	1.2
CCC(COC(=O)NC)NC(=O)Oc1cccc(C)c1 (configuration not stated)	i	-0.81
CCCCCCOc1ccc(CN2CCN(CC)CC2)cc1	i	-0.06
O=C(Nc1cccc(OC(=O)N2CCOCC2)c1)N1CCOCC1	i	-0.52
Cc1ccsc1C(=O)C1CCCN(Cc2ccccc2O)C1 (configuration not stated)	i	1.1
Cn1c(O)c(C=NC2CCCCC2)c(=O)[nH]c1=S	i	0.29
O=C1NC(=S)NC(=O)C12C(c1ccc(F)cc1)NC(=S)NC2c1ccc(F)cc1 (configuration not stated)	i	0.39
C=C1C(=O)O[C@@H]2C[C@@H](C)[C@H]3C=CC(=O)[C@]3(O)C[C@@H]12	i	-1.1
COCCNC(=O)Cn1cc(C(=O)c2ccccc2F)c2ccccc21	i	-0.79
C=C(C)[C@H]1CN[C@H](C(=O)O)[C@H]1CC(=O)O	i	-0.48
Cc1cccc(NC(=O)N2CCCC2)c1	i	0.17
CNC(C)Cc1ccccc1Sc1ccc(O)cc1 (configuration not stated)	i	-0.29
CCOC(=O)C1CCCN(c2ccc([N+](=O)[O-])c3nonc23)C1 (configuration not stated)	i	79
CCC(=Nc1cccc(C(F)(F)F)c1)c1c(O)n(C)c(=O)n(C)c1=O	i	0.38
C/C(=N\NC(=O)c1ccccc1)c1c(O)n(Cc2ccccc2)c(=O)[nH]c1=O	i	-0.36
O=[N+]([O-])c1ccc(NCc2ccccc2)c2nonc12	i	26
Cc1ccc(-c2cc(-c3ccc(C)cc3)[n+](C)o2)cc1	i	-2.8
Cc1cc(/C=C2\C(=O)NC(=O)N(Cc3ccccc3Cl)C2=O)c(C)n1-c1ccc(C(=O)O)cc1	i	-1
